Screens from PubChem BioAssay.
miR-21 FLuc = miR-21 reporter, rising signal | 340,000 tested, under 10 active | AID 2288 | HeLa miR-21 FLuc reporter, luciferase, 48 h | Potency, µM (doses to about 38.3 µM), for inactives: at the highest dose reporter change, positive = more light; active = well fitted rising curve with a large enough effect; inconclusive = small, poorly fitted or top-dose-only effect; inactive = no such curve, though single readings can be large or run the other way;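 note: % of control where 0% means no effect; miR-21 action dims this reporter so a rising signal means less miR-21 action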
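Luminescence from a firefly luciferase reporter carrying a miR-21 binding site downstream, stably expressed under a CMV promoter in HeLa cells that make miR-21 endogenously, reports miRNA modulation after 48 h compound exposure up to approximately 40uM final.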
Numbers without * were called inactive; ? = inconclusive; [ ] = remark or other dose.

| mol | miR-21 FLuc |
| --- | --- |
| O=C(CSc1nc2c(c(=O)[nH]1)CCCC2)Nc1cccc(O)c1 | 13% |
| CCOc1ccccc1NC(=O)C(=O)NCCc1sc(-c2cccc(F)c2)nc1C | -6% |
| O=C(CN1C(=O)COc2ccc(S(=O)(=O)N3CCCC3)cc21)N1CCN(c2cccc(C(F)(F)F)c2)CC1 | 11% |
| CCN1C(=O)c2ccccc2S(=O)c2ccc(C(=O)N3CCN(c4cc(Cl)ccc4C)CC3)cc21 (centres undefined) | 29% |
| CCN(CC)C(=O)C1=C(C)Nc2nc3ccccc3n2C1c1ccccc1F (centres undefined) | -3% |
| CCN1CCN(C(=O)c2ccc3c(c2)N(Cc2ccc(Cl)cc2)C(=O)c2ccccc2S3=O)CC1 (centres undefined) | 0% |
| Cc1cc(Sc2ccc(Cl)cc2)nc2ccccc12 | -37% |
| Cc1nc2ccn(Cc3cccs3)c(=O)c2cc1C(=O)NCc1ccc(Br)cc1 | 16% |
| COC(=O)c1ccccc1NC(=O)CSc1nc(=O)cc(N)n1-c1ccccc1 | 0% |
| CC(=O)N1CCc2cc(S(=O)(=O)C(C)CC(=O)Nc3ccc(Br)c(C)c3)ccc21 (centres undefined) | -22% |
| CCCCCn1c(=O)[nH]c2cc(C(=O)N3CCN(c4ccccc4)CC3)ccc2c1=O | 1% |
| COC(=O)c1ccccc1NS(=O)(=O)c1cc2c3c(c1)CC(=O)N3CCC2 | -6% |
| COc1cc(Br)c(C2CC(=O)Nc3cc4c(cc32)OCCO4)cc1OC (centres undefined) | 21% |
| COc1cc(Cl)c(NC(=O)CC(C)S(=O)(=O)c2cc3c(cc2C)NC(=O)CO3)c(OC)c1 (centres undefined) | -10% |
| COc1cc(OC)c(C2C=C(C(=O)O)Nc3ncnn32)cc1OC (centres undefined) | 2% |
| CCOC(=O)c1ccccc1NC(=O)N1CCCn2nc(C)cc21 | -10% |
| COc1ccc(C(=O)Nc2cc3c(cc2C(=O)c2ccccc2Cl)OCCO3)cc1 | -2% |
| COc1ccccc1NC(=O)Cn1c(=O)n(-c2cccc(Cl)c2)c(=O)c2sc3ccccc3c21 | -1% |
| Cc1ccc(CNC(=O)CCCCCn2c(=O)c3sccc3n(CC(=O)Nc3c(C)cc(C)cc3C)c2=O)cc1 | 3% |
| COc1ccc(NC(=O)CCc2c(C)nc3c(-c4ccc(F)cc4)c(C)nn3c2C)c(OC)c1 | -1% |
| O=C(COc1ccccc1Cl)Nc1ccc(Cl)c(-c2nc3ccccc3o2)c1 | -7% |
| COC(=O)c1ccc([C@H]2Nc3ccc(S(=O)(=O)Nc4ccc(F)cc4)cc3[C@H]3C=CC[C@H]32)cc1 | 0% |
| Cc1nc2cc(-c3cccc(F)c3)nn2c(C)c1CCC(=O)NCCc1ccccc1 | 16% |
| COc1ccccc1CNC(=O)CCC1N=C2c3ccccc3N=C(SCC(=O)NCCc3ccccc3)N2C1=O (centres undefined) | 6% |
| CCOc1ccc(N2CC(c3nc4ccccc4n3CCCOc3ccccc3)CC2=O)cc1 (centres undefined) | ? |
| Cc1cc(C)cc(NC(=O)CCc2nnc3n(C)c(=O)c4sccc4n23)c1 | 5% |
| COc1cccc(-c2nc(SC(C(C)=O)C(=O)N(C)C)c3c(=O)n(C)c(=O)n(C)c3n2)c1 (centres undefined) | -2% |
| Cc1ccc(C(=O)c2c(N)c(-c3nc(-c4ccc5c(c4)OCO5)cs3)c3ccccn23)cc1C | -2% |
| CCC(Sc1nnc2c3ccccc3n(CC)c2n1)C(=O)Nc1ccc(NC(C)=O)cc1 (centres undefined) | -21% |
| COc1ccc2nc(N(Cc3cccnc3)C(=O)C3CCCCC3)sc2c1 | -1% |
| CCc1cccc(C)c1Nc1c(-c2ccc(F)cc2)nc2sccn12 | 3% |
| CCOc1ccc(C(=O)Nc2ccc(S(=O)(=O)N(Cc3ccccc3)c3ccccc3)cc2)cc1 | ? |
| COc1ccc(C(=O)Nc2nnc(SCc3cc(=O)c4cccc(F)c4[nH]3)s2)cc1 | -6% |
| Cc1ccc2oc(=O)c3cnn(CC(=O)N4CCN(c5cccc(Cl)c5)CC4)c3c2c1 | -1% |
| Cc1ccc(Nc2nc(N)nc(N)c2S(=O)(=O)c2ccccc2)cc1 | 18% |
| Cc1ccc2c(c1)cc1c(=O)n(CC(=O)NC3CCCCC3)nc(C)n12 | -5% |
| Cc1ccc(-n2nc3c(N4CCC(C(=O)NC(C)C)CC4)nnc(C)c3c2C)cc1 | -2% |
| Cn1nnnc1SCCCNCc1cccc(OCc2ccccc2)c1 | -9% |
| CCN1CCN(Cc2c(O)ccc3c(=O)c(Oc4ccccc4C(C)C)c(C(F)(F)F)oc23)CC1 | -8% |
| Cc1ccccc1Cn1c(SCc2ccc(C(=O)NCCc3ccccc3)cc2)nc2ccncc21 | -4% |
| CC(C)c1ccc(NC(=O)CSc2nc3ccccc3nc2Cc2ccccc2)cc1 | 0% |
| Cc1cc(C)cc(NC(c2cccc(Cl)c2)c2nnc(-c3ccccc3)o2)c1 (centres undefined) | 19% |
| Cc1ccc(C)c(N2CCN(CCCNC(=O)c3cnn(-c4cccc(Cl)c4)c3C3CCN(C(=O)OC(C)(C)C)CC3)CC2)c1 | 19% |
| COc1cc2c(cc1OC)C(COc1ccc(F)cc1)N(C(=O)c1ccccc1F)CC2 (centres undefined) | -1% |
| O=C(Cn1c(=O)n(Cc2ccco2)c(=O)c2oc3ccccc3c21)Nc1ccc(F)cc1F | -1% |
| Cc1ccccc1CN1CCc2nc(Nc3ccc4c(c3)OCCO4)ncc2C1 | 19% |
| CC(=O)Nc1cccc(NC(=O)CN2C(=O)CCSc3ccccc32)c1 | 8% |
| O=C(Nc1ccccc1F)c1nc(S(=O)(=O)Cc2ccccc2F)ncc1Cl | ? |
| Oc1c(C(c2ccccc2F)N2CCOCC2)sc2nc(-c3ccco3)nn12 (centres undefined) | -3% |
| Fc1ccc(CSc2nc(NCc3ccccc3)c3ccccc3n2)cc1 | 18% |

More structures:
| mol | miR-21 FLuc |
| --- | --- |
| COc1cc(C2CC(=O)c3c([nH]c(C(=O)OC4CCCCC4)c3C)C2)cc(OC)c1OC (centres undefined) | 26% |
| CCc1ccc(NC(=O)C(=O)NCC(c2cccnc2)N2CCc3ccccc3C2)cc1 (centres undefined) | -33% |
| COc1ccccc1N1CCN(C(=O)c2nc(SC)ncc2Cl)CC1 | 24% |
| Cc1ccc(NC(=O)CN(C)S(=O)(=O)c2ccc3[nH]c4c(c3c2)CCCC4)c(Cl)c1 | 4% |
| COc1ccccc1NC(=O)CN1C(=O)CC(c2ccc(C)c(C)c2)=Nc2ccccc21 | -15% |
| CCc1cccc(C)c1NC(=O)Cn1c(=O)cc(C)c2c(C)nn(-c3cccc(F)c3)c21 | 0% |
| Cc1cccc(NC(=O)/C(C#N)=C/c2ccco2)c1 | -75% |
| O=C(NCCc1ccccc1)c1cnn(-c2ccc(F)cc2)c1-n1cccc1 | 1% |
| Cc1ccc2nc(SCC(=O)Nc3ccc(C#N)cc3)[nH]c2c1 | 2% |
| CCOc1ccc(C(=O)Nc2ccc3nc(SCC(=O)N4CCc5ccccc54)sc3c2)cc1 | 4% |
| CCN(CC)C(=O)c1sc2c(c1C)c(=O)n(-c1ccc(C)c(C)c1)c(=O)n2Cc1cccc(Cl)c1 | 22% |
| Cc1ccc(Nc2c(-c3c[nH]c4ccccc34)nc3cc(C)ccn23)cc1 | -46% |
| Cc1oc(-c2cccc(Cl)c2)nc1CN1CCC(C(=O)NCc2ccc(F)cc2)CC1 | 1% |
| CCc1ccccc1NC(=O)N1CCN(C(=O)c2nsc3ccccc23)CC1 | 7% |
| COc1ccc(NC(=O)C2CCCN(S(=O)(=O)c3cn(C)cn3)C2)cc1Cl (centres undefined) | -12% |
| COc1ccc(OC)c(NC(=O)c2cc3c(=O)oc4ccccc4c3s2)c1 | -2% |
| CSC1=NC2(CCN(C(=O)NC3CCCCC3)CC2)N=C1c1ccc(C(C)(C)C)cc1 | 3% |
| Cc1cc2c(c(=O)n1Cc1ccccc1)C1O[C@](c3ccsc3)(Cc3cc(C#N)ccc31)O2 | -5%[7.66 µM] |
| COc1ccc(-c2nc3c(C#N)c[nH]n3c2NC2CCCC2)cc1 | -14% |
| CCCCN(C)C(=O)C1CCC(CNS(=O)(=O)c2ccc(Cl)cc2)CC1 (centres undefined) | 14% |
| COc1ccc(-n2c(C)nc3cc(C(=O)NC4CCCCCC4)ccc32)cc1 | -1% |
| CCCCNC(=O)c1cnn2c(C)c(Cc3c(F)cccc3Cl)c(C)nc12 | -6% |
| COc1ccc(C(=O)NCCn2cc(SCc3cccc(F)c3)c3ccccc32)cc1OC | ? |
| Cc1cccc2sc(N(Cc3cccnc3)C(=O)C3CCCCC3)nc12 | 9% |
| CCOc1ccc(NC(=O)c2ncn(-c3ccccc3)n2)cc1 | -44% |

The last 3 compounds of the section before lead into the next:
| mol | miR-21 FLuc |
| --- | --- |
| COc1ccc(C(=O)NCCn2cc(SCc3cccc(F)c3)c3ccccc32)cc1OC | ? |
| Cc1cccc2sc(N(Cc3cccnc3)C(=O)C3CCCCC3)nc12 | 9% |
| CCOc1ccc(NC(=O)c2ncn(-c3ccccc3)n2)cc1 | -44% |
| O=C1CS(=O)(=O)C2(C(=O)N(Cc3cccc(F)c3)c3ccccc32)N1c1ccccc1 (centres undefined) | 1% |
| CC(=O)N1CCN(c2csc3ccc(Cl)cc3c2=O)CC1 | -9% |
| COc1ccc(CNC(=O)CS(=O)Cc2nc(-c3cccc(C)c3)oc2C)cc1 (centres undefined) | 0% |
| CCOc1ccc(CNc2nc3nc(C)c(Cc4ccccc4)c(=O)n3[nH]2)cc1 | 2% |
| Clc1ccccc1CNCCCSc1nnnn1-c1ccccc1 | -9% |
| COc1cc(C2c3c(oc4ccc(F)cc4c3=O)C(=O)N2Cc2ccc3c(c2)OCO3)ccc1O (centres undefined) | 0% |
| Cc1ccc(-c2nc(CS(=O)(=O)CC(=O)Nc3ccc(Br)cc3F)c(C)o2)cc1 | -1% |
| O=S(=O)(c1ccc(Br)cc1)c1nc(-c2ccco2)oc1SCc1ccccc1F | 3% |
| Cc1ccc(Cl)cc1N1CCN(c2nc3ccc(C(=O)c4ccccc4)cc3n3cnnc23)CC1 | -2% |
| COc1cccc2cc(-c3csc(-c4ccc(Cl)cc4)n3)c(=O)oc12 | 7% |
| CCOc1ccc(S(=O)(=O)NCC(c2cccs2)S(=O)(=O)c2ccc(C)cc2)cc1 (centres undefined) | 18% |
| O=C(Nc1cccc(F)c1)C1CCN(c2nc3ccccc3nc2C(F)(F)F)CC1 | ? |
| CC(=O)c1ccc(NC(=O)c2cc(C)nn2-c2ccccc2)cc1 | -9% |
| Cc1ccc(O)c(NC(=O)c2cc(-c3ccc4c(c3)OCO4)on2)c1 | -30% |
| COc1cccc(CSc2nc3n(n2)C(CC(C)C)C(C(=O)Nc2ccccc2C)=C(C)N3)c1 (centres undefined) | 2% |
| Cc1ccc(C)c(NC(=O)Cn2c(=O)ccc3cc(S(=O)(=O)N4CCCC4)ccc32)c1 | 5% |
| CCC(C)(C)NC(=O)C1CCN(S(=O)(=O)c2c(C)noc2/C=C/c2ccc(C)cc2)CC1 | 20% |
| FC(F)(F)c1cccc(Nc2c3c(nc4ccc(Cl)cc24)CCC3)c1 | ? |
| Cc1nc(N2CCCC2)ncc1C(=O)Nc1ccccc1 | 1% |
| Cc1ccc(CNC(=O)CSCc2ccccc2C)cc1 | -37% |
| CCOC(=O)c1c(NC(=O)CSc2cn(CCNC(=O)c3ccc(OC)c(OC)c3)c3ccccc23)sc2c1CCCC2 | 3% |
| O=C1CC(c2ccc(Br)cc2)c2c(ccc3ccccc23)N1 (centres undefined) | 11% |
| Cc1ccc(Cn2c(CNS(=O)(=O)c3c(C)cc(C)cc3C)nc3cccnc32)cc1 | 4% |
| CCCc1nn2c(=O)cc(COC(=O)c3ccc(NC(=O)COc4ccccc4)cc3)nc2s1 | 0% |
| Cc1cc(Br)ccc1NC(=O)CSc1c2c(nc3ccccc13)CCC2 | 14% |

Taken from the entries so far (6 entries):
| mol | miR-21 FLuc |
| --- | --- |
| O=C1CS(=O)(=O)C2(C(=O)N(Cc3cccc(F)c3)c3ccccc32)N1c1ccccc1 (centres undefined) | 1% |
| CC(=O)N1CCN(c2csc3ccc(Cl)cc3c2=O)CC1 | -9% |
| COc1ccc(CNC(=O)CS(=O)Cc2nc(-c3cccc(C)c3)oc2C)cc1 (centres undefined) | 0% |
| CCOc1ccc(CNc2nc3nc(C)c(Cc4ccccc4)c(=O)n3[nH]2)cc1 | 2% |
| Clc1ccccc1CNCCCSc1nnnn1-c1ccccc1 | -9% |
| COc1cc(C2c3c(oc4ccc(F)cc4c3=O)C(=O)N2Cc2ccc3c(c2)OCO3)ccc1O (centres undefined) | 0% |

Further records:
| mol | miR-21 FLuc |
| --- | --- |
| CC(=O)Nc1ccc(S(=O)(=O)Nc2nc3n(n2)C(c2ccccc2)C=C(c2ccc(Cl)cc2)N3)cc1 (centres undefined) | -5% |
| CN1C(=O)CC(C(=O)Nc2ccc(C(=O)O)cc2)SC1=Nc1ccc(Cl)cc1 (centres undefined) | -7% |
| Cc1cccc(Cn2c(CN3CCC(C(=O)NCCc4ccccc4)CC3)cc3ccccc32)c1 | ? |
| Cc1ccc(NC(=O)CCCc2nnc3n(C)c(=O)c4sccc4n23)cc1F | 9% |
| CN(C)c1ccc(CNC(=O)C2CCCN(S(=O)(=O)c3ccc4c(c3)oc(=O)n4C)C2)cc1 (centres undefined) | 0% |
| COc1ccccc1CNC(=O)CCn1nc(C)c2c(C)n(-c3ccccc3)nc2c1=O | -1% |
| Cc1c(Cl)cccc1NC(=O)N1CCN(C(=O)c2nsc3ccccc23)CC1 | -7% |
| COc1ccc2oc(=O)cc(CN3CCN(C(=O)c4ccccc4F)CC3)c2c1 | -12% |
| Cc1ccc(C)c(NC(=O)Cn2c(=O)n(CC3CCCO3)c(=O)c3ccccc32)c1 (centres undefined) | -15% |

Some of the compounds tested, so the mix of outcomes need not match the whole.
